N370S GC mod – inhibits or activates N370S mutant glucocerebrosidase; Potency, µM (titrated, usually from 59.4 µM), inactives show top-dose activity change, negative = inhibition, usual class: inhibitors; 0.092% of 330,000 active; N370S GC spleen homogenate, 4MU-glucoside fluorescence; AID 2101; P04062; active = well fitted inhibition curve with a large enough effect; inconclusive = small, poorly fitted or top-dose-only effect, or effect the other way, or another doubt; inactive = no such curve, though single readings can be large or run the other way;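 note: 0% = full enzyme activity and -100% = no enzyme basal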
* marks the source's active call; other numbers are inactive results; ? = inconclusive; & = joins results of further samples; [ ] = dose if it differs, or a comment. Potency is the fitted concentration of half-maximal effect. Not all compounds are listed, and most or all hits are left out here.

SMILES	N370S GC mod
CCn1c(SCC(=O)Nc2cc(S(=O)(=O)N3CCOCC3)ccc2OC)nnc1-c1ccncc1	-18%
COc1cc(OC)cc(C(=O)Nc2ccc(CN3CCCCC3)cc2)c1	1%
Cc1ccc(S(=O)(=O)CC(=O)c2ccc(C)c([N+](=O)[O-])c2)cc1	-10%
CC(=O)NC12CC3CC(C1)CC(C(=O)OCC(=O)Nc1ncc(Cl)cc1Cl)(C3)C2	2%
COc1ccccc1CNC(=O)C1CCC(=O)N(CCCN2CCCC2=O)C1 (stereo not given)	4%
O=C(N/N=C/c1cccnc1)c1ccco1	-4%
Cc1ccc(S(=O)(=O)NC2CC2)s1	-8%
CCOC(=O)[C@@H]1[C@H]2COc3ccc(Br)cc3[C@@H]2N2C(=O)N(c3ccc(OC)cc3)C(=O)[C@]12C	-1%
Cc1nn(C)cc1CNC(=O)COc1ccc(Cl)cc1Cl	4%
CCN1CCN(C(c2cccs2)C(C)NS(=O)(=O)c2ccccc2)CC1 (stereo not given)	-2%
COc1cc2c3cc1Oc1cc(ccc1O)C[C@@H]1c4c(cc(OC)c(O)c4Oc4ccc(cc4)C[C@@H]3N(C)CC2)CC[N+]1(C)C	-11%
Cc1ccc(C2=Nn3c(COc4ccc(Cl)cc4)nnc3SC2CC(=O)O)cc1 (stereo not given)	1%
O=C(COc1ccc(C(=O)NCc2cccnc2)cc1)Nc1cccc(C(F)(F)F)c1	-6%
Cc1ccc2nc(-c3ccncc3)cc(C(=O)N3CCOCC3)c2c1	-1%
Cc1ccccc1SCc1noc(C(=O)NC(C)C)c1C(=O)O	-21%
O=C(Nc1ccc(O)c2c(=O)cc(-c3ccccc3Cl)oc12)c1cccs1	-5%&8%
Cc1cc(C)c(NC(=O)CCCN2CCOCC2)c(C)c1	-12%
CCOc1ccc(CCNC(=O)C2CCCN(c3nn4c(=O)cc(C)nc4s3)C2)cc1 (stereo not given)	2%
CCOC(=O)c1c(NC(=O)CCCN2CCOCC2)sc2c1CC(C)(C)OC2	1%
COc1cc(OC)c(C(=O)OCC(=O)NCC2CCCCC2)cc1OC	-8%
COc1cc(SC)ccc1C(=O)NCCOc1ccc(Cl)cc1	15%
Cn1c(=O)c(=O)n(C)c2cc(S(=O)(=O)CCC(=O)Nc3ccc(F)cc3)ccc21	6%
O=C(NCc1cccnc1)c1ccc(CS(=O)(=O)Cc2ccc(Cl)cc2)o1	2%
O=C(c1nc2ccc(Cl)cn2c1CNCCc1cnccn1)N1CCCCCCC1	-12%
O=C(O)c1cccc(S(=O)(=O)Nc2ccc3c(c2)CCC3)c1	1%

Further records follow:
SMILES	N370S GC mod
CC1(C)CC(=O)C(C(=S)Nc2ccccc2)=C(NC2CC(C)(C)NC(C)(C)C2)C1	1%
CC1CCCCC1NC(=O)CSc1nnc(N)s1 (stereo not given)	-10%
O=C(CCN1C(=O)COc2ccccc21)N1CCCCC1	4%
Cc1nc(CN2CCN(S(=O)(=O)c3c(Cl)cc(Br)cc3Cl)CC2)cs1	-10%
Cc1ccc2c(c1)nnn2C1CCN(S(=O)(=O)c2ccc(C(=O)N(C)C3CCCCC3)cc2)CC1	4%
O=[N+]([O-])c1ccc(NCCNc2ccc(Cl)nn2)cc1	-5%[12.8 µM]
O=C(c1ccco1)n1c(=S)nc2ccccn21	8%
COc1ccc(Cl)cc1NC(=O)Cc1c(F)cccc1Cl	-9%
Cc1ccc(NC(=O)CN(C)C(=O)c2cccc(S(=O)(=O)NCc3ccccc3)c2)cc1	-29%
CC1(C)CC(=O)C2=C(C1)NC(=O)CC2c1cc2c(cc1Br)OCO2 (stereo not given)	15%
O=C(CSc1nnc(CNC(=O)c2ccccc2F)o1)NC1CCCCC1	0%
C=C(C)CSc1nnc(CCNC(=O)OC(C)(C)C)o1	2%
O=C(N/N=C/c1ccncc1)NC1CCCCC1	-8%
Cc1ccc(C)c(OCCC(=O)NCCc2ccc(S(N)(=O)=O)cc2)c1	-7%
CCOC(=O)c1c(C)nc2sc(C(=O)Nc3ccc(OC)cc3)c(N)c2c1-c1ccc(OC)cc1	15%
Cc1ccc(C(=O)N(c2ccccn2)C(C)c2ccco2)cc1C (stereo not given)	10%
CCOC(=O)C1=C(C)NC(=S)NC1c1ccc(OCC(=O)N2CCCCCC2)c(OC)c1 (stereo not given)	-14%
Cc1cc(/C=C(/C#N)c2nc3ccccc3[nH]2)c(C)n1-c1ccccc1C(=O)O	1%
O=C(CN1C(=O)c2cccc3cccc(c23)C1=O)N1CCCCCC1	13%
O=C(Nc1ccccc1)c1ccc(-n2cnnn2)cc1	-5%
COc1ccc(NC2=CC(=O)CC(c3ccccc3)C2)cc1 (stereo not given)	-3%
CC1CN(S(=O)(=O)c2ccc(C(=O)Nc3nc(-c4cc5ccccc5o4)cs3)cc2)CC(C)O1 (stereo not given)	-5%
CCc1c(C)sc(NC(=S)Nc2nc(C)cc(C)n2)c1C(=O)OC	1%
COc1cccc(OC)c1C1=NC(C)(C)CO1	5%
COc1ccc(-c2noc(CSc3nc4sc(C)c(C)c4c(=O)n3-c3ccccc3)n2)cc1	-10%

Further entries follow.
SMILES	N370S GC mod
O=C1CN(C(=O)CC2c3ccccc3-c3ccccc32)CC(=O)N1	8%
Cc1cc(C)nc(N(C#N)Cc2ccccc2Cl)n1	12%
COc1ccc(C(=O)c2no[n+]([O-])c2C(=O)c2ccc(OC)cc2)cc1	27%
COc1ccc(C(=O)N2CCCC(N3CCN(c4ccccc4OC)CC3)C2)c(OC)n1 (stereo not given)	-6%
C=C(C)C1CC=C(C)/C(=N/NC(=O)c2ccoc2C)C1 (stereo not given)	11%
O=C1c2ccccc2NC2(CCCC2)N1N=C1CCCC1	-17%
Cc1ccc(S(=O)(=O)NCCOCCNS(=O)(=O)c2ccc(C)cc2)cc1	-5%
COc1ccc(NC(=O)C(NS(=O)(=O)c2ccc3c(c2)CCCN3C(C)=O)C(C)C)c(OC)c1 (stereo not given)	?
O=C(CSc1nc(-c2ccco2)cc(C(F)(F)F)n1)N1CCN(c2ccc(Cl)cc2)CC1	9%
CCN1C(=O)c2cccc3c(NC(=O)c4ccc(S(=O)(=O)N(C)C)cc4)ccc1c23	-16%
Cc1cccc(NS(=O)(=O)c2ccc(C)c(NS(=O)(=O)c3cccs3)c2)c1	3%
COc1cc(S(=O)(=O)N2CCOCC2)ccc1N	-4%
CC(C)(C)OC(=O)N1CCC(c2c(C(=O)N3CCN(C4CCCCC4)CC3)cnn2-c2ccccc2)CC1	-1%
O=C(CC1Nc2cccc3cccc(c23)NC1=O)Nc1ccc(F)cc1 (stereo not given)	17%
CCS(=O)(=O)C(=C1NCCO1)S(=O)(=O)CC	3%
O=C(CCC(=O)c1ccc(Cl)cc1)OCC(=O)c1ccccc1	17%
CCc1nc2ccc(C(=O)N(C)CC(=O)Nc3ccc(Cl)c(C(F)(F)F)c3)cc2nc1CC	-6%
O=C(CSc1ccc(-c2ccncc2)nn1)N1CCCCC1	-5%
Nc1nc(-c2ccccc2)cc(N2CCCCC2)n1	-3%
COc1cccc(CN(c2ccc3c(c2)CCC3)S(=O)(=O)c2ccc(-n3cnnn3)c(OC)c2)c1	0%
COCCCC1CCN(C(=O)C2CCC(=O)N(Cc3ccccc3F)C2)CC1 (stereo not given)	2%
O=C(NCCc1ccc2c(c1)OCO2)C1CCN(S(=O)(=O)c2ccc(Cl)cc2)CC1	14%
O=C(OCC(=O)c1c[nH]c2ccccc12)c1cccc(O)c1	-5%
CN(Cc1ccc(N(C)C)cc1)C(=O)c1cc2ccccc2o1	1%
CCc1ccc(N(C)S(=O)(=O)c2ccc3[nH]cc(C(=O)NCCN4CCOCC4)c(=O)c3c2)cc1	-7%

Reprinted from the part before: three compounds, followed by the next part.
SMILES	N370S GC mod
O=C(OCC(=O)c1c[nH]c2ccccc12)c1cccc(O)c1	-5%
CN(Cc1ccc(N(C)C)cc1)C(=O)c1cc2ccccc2o1	1%
CCc1ccc(N(C)S(=O)(=O)c2ccc3[nH]cc(C(=O)NCCN4CCOCC4)c(=O)c3c2)cc1	-7%
CS(=O)(=O)N(CCc1ccccc1)CC(=O)N1CCN(Cc2ccc3c(c2)OCO3)CC1	2%
Clc1cccc(-c2ccc(/C=N/n3cnnc3)o2)c1Cl	12%
CCOC(=O)c1ccccc1Nc1cc(C)nc2nc(C)nn12	8%
C#CCOC(=O)C[N+](C)(C)CC=C	1%
O=C(c1ccc(Cl)cc1)c1ccccc1C(=O)N1CCOCC1	9%
Cc1cc2ncn(S(=O)(=O)N(C)C)c2cc1C	9%
CC1CCN(C(=O)c2ccc3c(c2)OCCO3)CC1	0%
COc1ccc(S(=O)(=O)N2CCN(C(=O)COc3ccccc3)CC2)cc1	4%
Cc1cc(-c2ccco2)n(CC(=O)O)n1	2%
Cn1c(CN2CCOCC2)nc2cc(NC(=O)c3ccc(F)cc3)ccc21	4%
Cc1c(Cc2ccccc2)c(=O)oc2cc(O)cc(O)c12	5%
COC(=O)C1CCN(C(=O)COC(=O)c2n[nH]c3ccccc23)CC1	-14%
O=C(COC(=O)c1cccc(Cl)c1Cl)NCCN1C(=O)CSC1=O	11%
CCN(CC(=O)Nc1c(F)cccc1F)C(=O)C1CCC1	-5%
COc1ccc(N(C(=O)Nc2ccc(Cl)cc2)C2=NCCC2)cc1	-5%
O=C1N/C(=C/c2ccco2)C(=O)N1Cc1ccccc1F	1%
Cc1cccc(NC(=S)NC2CCSc3ccccc32)c1 (stereo not given)	10%
Cc1cc(NS(=O)(=O)c2ccc(OCCNS(C)(=O)=O)cc2)no1	2%
CC1=NN(C(=O)c2ccccc2-n2cccc2)C(O)(C(F)(F)F)C1 (stereo not given)	2%
O=C(O)CCNS(=O)(=O)c1ccc2c(c1)Cc1ccccc1-2	7%
CCOc1ccccc1-c1nnc(CS(=O)(=O)c2ccccc2)o1	26%
CC(C)Cn1c(SCC(=O)N2CC(=O)Nc3ccccc32)nc2ccccc21	4%
Cc1ccc(NC(=O)NCCc2ccc(S(N)(=O)=O)cc2)cc1	0%
Cn1c(Cc2cccs2)nnc1SCc1nc2ccccc2[nH]1	3%
Cc1cccc(CSc2[nH]c(=O)ncc2C)c1	11%

(more compounds)
SMILES	N370S GC mod
Cc1ccc(S(=O)(=O)Nc2ccc(NC(=O)c3ccc(F)cc3)cc2)cc1	-2%
COc1ccccc1N1CCN(S(=O)(=O)c2c(C)[nH]c(C)c2C(=O)N2CCCCC2)CC1	-5%
COc1ccc(C(=O)NNC(=O)c2ccccc2[N+](=O)[O-])cc1Br	6%
Cc1cccc(C(=O)N[C@H](C(=O)NCCc2ccc(S(N)(=O)=O)cc2)C(C)C)c1	1%
Cc1nc2ccccc2c2oc(C(=O)NC3CC3)cc12	-1%
Cc1ccc(C(=O)NC(NCC2CCCO2)C(Cl)(Cl)Cl)cc1 (stereo not given)	18%
O=C(O)c1c(Cl)c(Cl)c(Cl)c(Cl)c1C(=O)N1CCCCCC1	4%
CCOC(=O)C1=C(C)NC(C)=C(C(=O)OC)C1c1cccc(Cl)c1Cl (stereo not given)	30%&8%
CCNc1c2c3c(cccc3n(C)c1=O)C(=O)c1ccccc1-2	6%
O=C(Nc1ccc(F)cc1)C(Sc1nc2ccccc2[nH]1)c1ccccc1 (stereo not given)	26%
C/C=C(\C)CN1CCc2cc(OC)c(OC)cc2C1	2%
O=C(NC1CC1)c1ccc(CS(=O)(=O)c2c(Cl)cccc2Cl)o1	-11%
COc1ccc(CNC(=O)C(c2ccco2)N(Cc2ccccc2)C(=O)Cc2cccs2)cc1 (stereo not given)	13%
Cc1ccc(NC(=O)COC(=O)[C@H](C)NC(=O)c2ccccc2)cc1S(=O)(=O)N1CCOCC1	7%
c1csc(C(c2nnnn2C2CCCCC2)N2CCN(c3nc4ccccc4s3)CC2)c1 (stereo not given)	24%
COc1ccc(C(=O)Nc2cc(C)c(NC(=O)c3ccccc3OC)cn2)cc1	1%
CC(C)[C@H](NC(=O)c1ccccc1)C(=O)OCC(=O)c1ccccc1F	4%
CCn1c(SCC(=O)Nc2ccc(C(=O)OC)cc2)nc2cccnc21	18%
CCOc1ccc(-c2nnn(CC(=O)Nc3cc(OC)cc(OC)c3)n2)cc1OCC	-2%
CCOC(=O)c1cc(-c2ccccc2)sc1N	-9%
CC(=O)Nc1ccc(NC(=O)Nc2cccc(C)c2C)cc1	-5%
COc1cc2nc(CN3CCOCC3)n(CC(=O)N3CCCCCC3)c(=O)c2cc1OC	10%
COc1cc(C(c2sc3nc(C)nn3c2O)N2CC(C)CC(C)C2)cc(OC)c1OC (stereo not given)	4%
O=C(NC1CCCCC1)C(c1ccc(F)cc1)N(C(=O)c1csnn1)C1CC1 (stereo not given)	2%

14 entries from above, sorted by number of heavy atoms, high to low.
SMILES	N370S GC mod
Cc1ccc(NC(=O)COC(=O)[C@H](C)NC(=O)c2ccccc2)cc1S(=O)(=O)N1CCOCC1	7%
COc1ccccc1N1CCN(S(=O)(=O)c2c(C)[nH]c(C)c2C(=O)N2CCCCC2)CC1	-5%
CCOc1ccc(-c2nnn(CC(=O)Nc3cc(OC)cc(OC)c3)n2)cc1OCC	-2%
COc1ccc(C(=O)Nc2cc(C)c(NC(=O)c3ccccc3OC)cn2)cc1	1%
O=C(NC1CCCCC1)C(c1ccc(F)cc1)N(C(=O)c1csnn1)C1CC1 (stereo not given)	2%
O=C(Nc1ccc(F)cc1)C(Sc1nc2ccccc2[nH]1)c1ccccc1 (stereo not given)	26%
CCn1c(SCC(=O)Nc2ccc(C(=O)OC)cc2)nc2cccnc21	18%
CCOC(=O)C1=C(C)NC(C)=C(C(=O)OC)C1c1cccc(Cl)c1Cl (stereo not given)	30%&8%
COc1ccc(C(=O)NNC(=O)c2ccccc2[N+](=O)[O-])cc1Br	6%
CCNc1c2c3c(cccc3n(C)c1=O)C(=O)c1ccccc1-2	6%
CC(=O)Nc1ccc(NC(=O)Nc2cccc(C)c2C)cc1	-5%
Cc1nc2ccccc2c2oc(C(=O)NC3CC3)cc12	-1%
C/C=C(\C)CN1CCc2cc(OC)c(OC)cc2C1	2%
CCOC(=O)c1cc(-c2ccccc2)sc1N	-9%

Source: PubChem
